Env fusion inh: inhibitors of HIV-1 Env-driven cell-cell fusion, primary screen, HeLa-JRFL effector, CEM21 target cells, luciferase. 360,000 compounds, 1.1% hits. inhibition, % at 12.3 µM. AID 651610, 2012;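 active = mean replicate inhibition score of at least 50 and every replicate individually at or above 50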;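 also: 0% = plate neutral controls and 100% = maraviroc near 300 nM; one replicate is shown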
Yeast UUG start: modulators of yeast start codon fidelity, primary screen, whole organism, S. cerevisiae, single point, plate reader; S. cerevisiae UUG-firefly luciferase reporter, luminescence/redox ratio; activity score, % at 18.7 µM; 350,000 compounds, 0.13% hits;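 active = replicate mean at a twofold rise or more, about +100% in these data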;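 also: firefly luciferase made from a UUG start codon reports start codon fidelity; reporter light over untreated wells divided by growth signal over untreated wells; some hits fall short of that in this replicate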
Active calls of the source: *; [ ] = another dose, or the depositor's remark.

SMILES | Env fusion inh | Yeast UUG start
COc1ccccc1S(=O)(=O)N[C@@H]1C=C[C@@H](CC(=O)NCc2cc(F)cc(F)c2)O[C@@H]1CO | -12[16.7 µM] | -4
O=C(O)C[C@@H]1CC[C@H](NC(=O)c2ccccc2F)[C@@H](CO)O1 | 4[16.7 µM] | -10
C[C@@H]1CN([C@H](C)CO)C(=O)Cc2cc(NS(=O)(=O)c3cccs3)ccc2O[C@@H]1CN(C)S(=O)(=O)c1ccc(F)cc1 | 5[16.7 µM] | 9
CC(=O)N(C)C[C@H]1Oc2cc(C#Cc3cccnc3)ccc2S(=O)(=O)N([C@@H](C)CO)C[C@H]1C | 0[16.7 µM] | 9
C[C@@H]1CN([C@H](C)CO)S(=O)(=O)c2ccc(C3=CCCC3)cc2O[C@H]1CN(C)Cc1ccccc1F | 6[16.7 µM] | 32
COc1ccc(CN(C)C[C@H]2OCCCC[C@H](C)Oc3ccc(NC(=O)Nc4ccc5c(c4)OCO5)cc3C(=O)N([C@H](C)CO)C[C@@H]2C)cc1 | -7[16.7 µM] | 0
COc1ccc(-c2cnc3c(c2)C(=O)N([C@H](C)CO)C[C@H](C)[C@H](CN(C)S(=O)(=O)c2ccccc2)O3)cc1 | 11[16.7 µM] | 8
COc1ccc(S(=O)(=O)N2C[C@H](O)COC[C@H]3O[C@@H](CC(=O)N[C@H]4CCN(Cc5ccccc5)C4)CC[C@@H]32)cc1 | -19[16.7 µM] | 21
CC(C)C(=O)Nc1ccc2c(c1)C(=O)N(C)[C@H]1CC[C@@H](CC(=O)Nc3ccccc3)O[C@H]1CO2 | 4[16.7 µM] | 30
CNC[C@H]1OCCCC[C@@H](C)Oc2ccc(NS(=O)(=O)c3ccc(Cl)cc3)cc2C(=O)N([C@@H](C)CO)C[C@H]1C | -22[16.7 µM] | 5
Cc1noc(C)c1S(=O)(=O)N(C)C[C@H]1OCCCC[C@H](C)Oc2ccc(NC(=O)Cc3ccccc3)cc2C(=O)N([C@H](C)CO)C[C@@H]1C | 3[16.7 µM] | -10
N#C[C@H]1[C@@H](c2ccc(-c3ccccc3F)cc2)[C@@H](CO)N1C(=O)C1CCC1 | 7[16.7 µM] | 7

Part of the list above, as tab-separated lines.
SMILES	Env fusion inh	Yeast UUG start
C[C@@H]1CN([C@H](C)CO)S(=O)(=O)c2ccc(C3=CCCC3)cc2O[C@H]1CN(C)Cc1ccccc1F	6[16.7 µM]	32
COc1ccc(CN(C)C[C@H]2OCCCC[C@H](C)Oc3ccc(NC(=O)Nc4ccc5c(c4)OCO5)cc3C(=O)N([C@H](C)CO)C[C@@H]2C)cc1	-7[16.7 µM]	0
COc1ccc(-c2cnc3c(c2)C(=O)N([C@H](C)CO)C[C@H](C)[C@H](CN(C)S(=O)(=O)c2ccccc2)O3)cc1	11[16.7 µM]	8
COc1ccc(S(=O)(=O)N2C[C@H](O)COC[C@H]3O[C@@H](CC(=O)N[C@H]4CCN(Cc5ccccc5)C4)CC[C@@H]32)cc1	-19[16.7 µM]	21
CC(C)C(=O)Nc1ccc2c(c1)C(=O)N(C)[C@H]1CC[C@@H](CC(=O)Nc3ccccc3)O[C@H]1CO2	4[16.7 µM]	30

New compounds follow:
SMILES | Env fusion inh | Yeast UUG start
C[C@@H]1CCCCO[C@H](CN(C)Cc2ccncc2)[C@@H](C)CN([C@H](C)CO)C(=O)c2cc(NC(=O)Cc3ccccc3)ccc2O1 | 0[16.7 µM] | -14
O=C(C[C@H]1C[C@@H]2c3cc(NC(=O)NC4CCCC4)ccc3O[C@@H]2[C@@H](CO)O1)NCc1ccc2c(c1)OCO2 | -7[16.7 µM] | 10
C[C@H]1C=C(C(=O)Nc2ccccc2)O[C@@H](OCCCCO)C1 | 2[16.7 µM] | 5
C[C@@H]1CCCCO[C@@H](CN(C)C(=O)CCC(F)(F)F)[C@@H](C)CN([C@@H](C)CO)C(=O)c2cc(NS(C)(=O)=O)ccc2O1 | -1[16.7 µM] | 2
C[C@@H]1CN([C@@H](C)CO)C(=O)c2cccc(NC(=O)Nc3ccc(C(F)(F)F)cc3)c2O[C@H]1CN(C)Cc1ccc(Oc2ccccc2)cc1 | 69*[16.7 µM] | -9
C[C@@H]1CN([C@@H](C)CO)S(=O)(=O)c2ccc(/C=C/c3ccccc3)cc2O[C@@H]1CN(C)C(=O)Nc1cccc(F)c1 | -63[16.7 µM] | 9
Cc1noc(C)c1NC(=O)N(C)C[C@H]1Oc2ccc(NC(=O)Nc3cccc4ccccc34)cc2CC(=O)N([C@H](C)CO)C[C@@H]1C | 28[16.7 µM] | 20
C[C@H](CO)N1C[C@H](C)[C@H](CN(C)Cc2ccccc2)Oc2ccc(NS(=O)(=O)c3ccccc3)cc2C1=O | -5[16.7 µM] | 13
Cc1noc(C)c1NC(=O)Nc1ccc2c(c1)C(=O)N([C@@H](C)CO)C[C@@H](C)[C@H](CN(C)C(=O)c1ccccc1)OCCCC[C@@H](C)O2 | 2[16.7 µM] | 7
C[C@H](CO)N1C[C@H](C)[C@H](CN(C)Cc2cccc(C(F)(F)F)c2)Oc2ncc(C#CCN(C)C)cc2C1=O | -53[16.7 µM] | 18
CCCNC(=O)C[C@@H]1CC[C@@H]2[C@H](COc3ccc(NC(=O)Nc4ccccc4F)cc3C(=O)N2C)O1 | 14[16.7 µM] | 4
C/C=C/c1cnc2c(c1)C(=O)N([C@@H](C)CO)C[C@H](C)[C@@H](CN(C)C(=O)c1cccc(F)c1)O2 | -3[16.7 µM] | -3
COc1ccc(NC(=O)N(C)C[C@@H]2Oc3c(NS(=O)(=O)c4ccc(C)cc4)cccc3C(=O)N([C@H](C)CO)C[C@@H]2C)cc1 | -41[16.7 µM] | 12
COc1ccc(-c2cnc3c(c2)C(=O)N([C@@H](C)CO)C[C@@H](C)[C@@H](CN(C)C(=O)Cc2ccccn2)O3)cc1 | -13[16.7 µM] | -11
CC(=O)N[C@H]1CC[C@@H](CCNC(=O)Nc2ccc(C(F)(F)F)cc2)O[C@H]1CO | 8[16.7 µM] | -6
COc1ccc(S(=O)(=O)N(C)C[C@H]2Oc3ccc(NS(=O)(=O)c4cccs4)cc3C(=O)N([C@H](C)CO)C[C@H]2C)cc1 | -10[16.7 µM] | -8
COCC#Cc1cnc2c(c1)C(=O)N([C@@H](C)CO)C[C@H](C)[C@H](CN(C)C(C)=O)O2 | -39[16.7 µM] | -1
C[C@H](CO)N1C[C@H](C)[C@H](CN(C)C)Oc2cc(C#CCC3CCCC3)ccc2S1(=O)=O | 25[16.7 µM] | 8
C[C@@H]1CN([C@@H](C)CO)C(=O)c2cc(NC(=O)Nc3ccc(F)cc3)ccc2O[C@@H](C)CCCCO[C@@H]1CN(C)Cc1ccc2c(c1)OCO2 | -121[16.7 µM] | 2
C[C@H](CO)N1C[C@H](C)[C@@H](CN(C)CC2CC2)Oc2cc(-c3ccccc3)ccc2S1(=O)=O | 3[16.7 µM] | 7
COc1ccc(CN(C)C[C@H]2Oc3ccc(NC(=O)Nc4ccc(C(F)(F)F)cc4)cc3C(=O)N([C@@H](C)CO)C[C@@H]2C)cc1 | -6[16.7 µM] | 18
CCCC(O)C#Cc1cnc2c(c1)C(=O)N([C@H](C)CO)C[C@H](C)[C@H](CN(C)C)O2 (stereo partly drawn) | 14[16.7 µM] | -2
CCCC#Cc1ccc2c(c1)O[C@@H](CN(C)C(C)=O)[C@H](C)CN([C@H](C)CO)S2(=O)=O | -2[16.7 µM] | 18
COc1ccccc1-c1cn(CC[C@@H]2CC[C@@H](NC(=O)C3CCC3)[C@H](CO)O2)nn1 | -10[16.7 µM] | 0
CN(C)CC(=O)N[C@H]1CC[C@H](CC(=O)NCCN2CCCCC2)O[C@@H]1CO | -10[16.7 µM] | -18
COCC(=O)N(C)C[C@H]1Oc2ncc(C#CCC3CCCC3)cc2C(=O)N([C@@H](C)CO)C[C@H]1C | -15[16.7 µM] | 7
C[C@H](CO)N1C[C@H](C)[C@@H](CN(C)Cc2ccc(C(=O)O)cc2)OCCCC[C@H](C)Oc2ccc(NS(=O)(=O)c3ccccc3)cc2C1=O | 8[16.7 µM] | -4
C[C@H](CO)N1C[C@H](C)[C@@H](CN(C)Cc2ccc(C(F)(F)F)cc2)Oc2c(NC(=O)Nc3ccccc3)cccc2C1=O | 25[16.7 µM] | 5
C[C@@H]1CN([C@H](C)CO)C(=O)c2cc(C#Cc3ccncc3)cnc2O[C@@H]1CN(C)C(=O)c1ccccc1F | 7[16.7 µM] | -10
C[C@H](CO)N1C[C@H](C)[C@@H](CN(C)C(=O)Nc2cccc(C(F)(F)F)c2)OCc2cn(nn2)CCCC1=O | -3 | 7
COCC(=O)N(C)C[C@H]1Oc2ncc(/C=C/c3ccccc3)cc2C(=O)N([C@H](C)CO)C[C@@H]1C | 14[16.7 µM] | -1
C[C@@H]1CCCCO[C@H](CN(C)C)[C@H](C)CN([C@H](C)CO)C(=O)c2cc(NC(=O)Nc3ccc(C(F)(F)F)cc3)ccc2O1 | -9[16.7 µM] | 9
Cc1ccccc1-c1cnc2c(c1)C(=O)N([C@H](C)CO)C[C@H](C)[C@H](CN(C)C(=O)c1ccc(F)cc1)O2 | 28[16.7 µM] | -8
C[C@@H]1CN([C@@H](C)CO)C(=O)c2cc(NS(=O)(=O)c3cccs3)ccc2O[C@@H](C)CCCCO[C@@H]1CN(C)C(=O)c1ccccc1 | 11[16.7 µM] | 2
C[C@@H]1CN([C@@H](C)CO)C(=O)c2cc(-c3cccc(C(=O)N(C)C)c3)cnc2O[C@@H]1CN(C)S(=O)(=O)c1cccc(F)c1 | 8[16.7 µM] | -4
COc1ccc(S(=O)(=O)Nc2cccc3c2O[C@@H](CN(C)S(=O)(=O)c2ccc(Cl)cc2)[C@H](C)CN([C@@H](C)CO)C3=O)cc1 | -2[16.7 µM] | -13
CCCNC(=O)C[C@H]1CC[C@H]2[C@H](COc3ccc(NS(=O)(=O)CC)cc3C(=O)N2C)O1 | -11[16.7 µM] | 0
COc1ccc(S(=O)(=O)Nc2ccc3c(c2)C(=O)N([C@H](C)CO)C[C@@H](C)[C@H](CN(C)S(=O)(=O)c2ccc(C)cc2)OCCCC[C@H](C)O3)cc1 | -23[16.7 µM] | -5
CCNC(=O)C[C@H]1CC[C@@H]2[C@H](COc3ccc(NC(=O)c4ccc5c(c4)OCO5)cc3C(=O)N2C)O1 | 1[16.7 µM] | 3
Cc1ccc(S(=O)(=O)N(C)C[C@H]2Oc3ccc(NS(C)(=O)=O)cc3CC(=O)N([C@@H](C)CO)C[C@@H]2C)cc1 | -12[16.7 µM] | -5
O=C(NCC[C@@H]1CC[C@@H](NS(=O)(=O)c2cccc(Cl)c2)[C@@H](CO)O1)c1cnccn1 | 0[16.7 µM] | -8
C[C@@H]1CN([C@@H](C)CO)C(=O)Cc2cc(NC(=O)Nc3ccc(C(F)(F)F)cc3)ccc2O[C@@H]1CN(C)Cc1ccc(Cl)c(Cl)c1 | 18[16.7 µM] | 2
C[C@H](CO)N1C[C@H](C)[C@@H](CN(C)C(=O)Nc2cccc3ccccc23)OCCCC[C@H](C)Oc2ccc(NC(=O)Nc3ccc(C(F)(F)F)cc3)cc2C1=O | 20[16.7 µM] | -12
Cc1ccc(S(=O)(=O)N(C)C[C@H]2OCCCC[C@H](C)Oc3ccc(NC(=O)C4CCCCC4)cc3C(=O)N([C@@H](C)CO)C[C@@H]2C)cc1 | -7[16.7 µM] | 4
C[C@@H]1CN([C@@H](C)CO)C(=O)c2cccc(NS(C)(=O)=O)c2O[C@H]1CN(C)Cc1ccc(-c2ccccc2)cc1 | -12[16.7 µM] | 14
C[C@@H]1CN([C@H](C)CO)C(=O)c2cc(-c3ccc(F)cc3)cnc2O[C@H]1CN(C)C(=O)c1cccnc1 | 15[16.7 µM] | 0
C[C@H]1CN([C@@H](C)CO)C(=O)c2cc(C#Cc3cccnc3)cnc2O[C@H]1CN(C)C | -6[16.7 µM] | -5
O=C(CCN1CCCCC1)NCC[C@@H]1CC[C@@H](NC(=O)Nc2ccc(Cl)cc2)[C@H](CO)O1 | 0[16.7 µM] | 11

Full records, looked up by structure.
C[C@H]1CN([C@@H](C)CO)C(=O)c2cc(C#Cc3cccnc3)cnc2O[C@H]1CN(C)C reads Env fusion inh: -6[16.7 µM]; Yeast UUG start: -5
Cc1ccc(S(=O)(=O)N(C)C[C@H]2OCCCC[C@H](C)Oc3ccc(NC(=O)C4CCCCC4)cc3C(=O)N([C@@H](C)CO)C[C@@H]2C)cc1 reads Env fusion inh: -7[16.7 µM]; Yeast UUG start: 4
C[C@@H]1CN([C@H](C)CO)C(=O)c2cc(-c3ccc(F)cc3)cnc2O[C@H]1CN(C)C(=O)c1cccnc1 reads Env fusion inh: 15[16.7 µM]; Yeast UUG start: 0

Next part:
SMILES | Env fusion inh | Yeast UUG start
O=C(C[C@@H]1C[C@H]2c3cc(NC(=O)c4ccc5c(c4)OCO5)ccc3O[C@H]2[C@@H](CO)O1)NCc1ccc(Cl)cc1 | 34[16.7 µM] | -4
CO[C@H]1CN(C)C(=O)c2cc(NC(=O)C3CCOCC3)ccc2OC[C@@H](C)NC[C@@H]1C | 3[16.7 µM] | -11
C[C@H](CO)N1C[C@H](C)[C@H](CN(C)Cc2ccc(C(=O)O)cc2)OCCCC[C@H](C)Oc2ccc(NC(=O)NC3CCCCC3)cc2C1=O | 14[16.7 µM] | 22
COc1ccccc1NC(=O)N[C@@H]1CC[C@@H](CCn2cc(-c3ccccc3)nn2)O[C@H]1CO | 15[16.7 µM] | 5
CCC(=O)N[C@H]1CC[C@H](CC(=O)OC)O[C@H]1CO | -1[16.7 µM] | -2
COc1ccc(NC(=O)N(C)C[C@@H]2Oc3c(NC(=O)c4ccncc4)cccc3C(=O)N([C@H](C)CO)C[C@H]2C)cc1 | -4[16.7 µM] | -1
COc1ccccc1C(=O)Nc1ccc2c(c1)C(=O)N(C)C[C@H](OC)[C@@H](C)CN[C@@H](C)CO2 | 11[16.7 µM] | 3

A portion of the library, so the mix of outcomes need not match the whole.
